Bioassay records: PubChem BioAssay, Johns Hopkins Ion Channel Center
KCNQ2 pot = potentiators of rat KCNQ2 potassium channel | actives 0.54% (n = 310,000) | O88943 | B-score at 10 µM | CHO-K1 KCNQ2, FluxOR thallium flux fluorescence; hits give high values;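 active = fluorescence ratio B-score at least 3 SD of library B-scores, with initial fluorescence B-score within 3 SD, cut at about 5.3 in these data; same plate scores as AID 2156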;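 also: B-score of peak minus minimum over baseline fluorescence ratio after K+ and Tl+ stimulus; positive B-score means potentiation of KCNQ2 with more thallium influx and brighter signal; only the inactives scoring about 0 or higher are listed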
Target sequence (O88943 whole entry, looked up): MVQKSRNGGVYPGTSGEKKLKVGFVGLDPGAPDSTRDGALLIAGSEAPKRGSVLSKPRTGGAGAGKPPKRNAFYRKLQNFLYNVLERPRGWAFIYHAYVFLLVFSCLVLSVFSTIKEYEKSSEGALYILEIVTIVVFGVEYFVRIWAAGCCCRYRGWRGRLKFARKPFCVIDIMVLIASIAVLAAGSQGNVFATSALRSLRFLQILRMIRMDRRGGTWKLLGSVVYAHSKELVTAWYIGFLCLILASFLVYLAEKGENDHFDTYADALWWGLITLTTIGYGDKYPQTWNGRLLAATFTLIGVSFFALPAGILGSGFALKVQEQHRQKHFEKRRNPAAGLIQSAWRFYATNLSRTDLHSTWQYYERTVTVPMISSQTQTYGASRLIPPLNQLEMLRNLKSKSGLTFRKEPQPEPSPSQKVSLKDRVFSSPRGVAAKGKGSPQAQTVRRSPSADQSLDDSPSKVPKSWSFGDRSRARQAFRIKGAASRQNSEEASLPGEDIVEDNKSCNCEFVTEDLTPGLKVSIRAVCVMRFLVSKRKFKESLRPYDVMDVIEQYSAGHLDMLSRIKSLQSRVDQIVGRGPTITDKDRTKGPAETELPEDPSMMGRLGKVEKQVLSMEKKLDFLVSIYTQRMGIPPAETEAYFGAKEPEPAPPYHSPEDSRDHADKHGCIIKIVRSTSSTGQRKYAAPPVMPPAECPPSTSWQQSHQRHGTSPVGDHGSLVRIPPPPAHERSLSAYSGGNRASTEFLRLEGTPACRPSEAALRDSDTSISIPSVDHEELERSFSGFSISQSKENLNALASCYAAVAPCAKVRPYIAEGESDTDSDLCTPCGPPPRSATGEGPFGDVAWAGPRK
KCNQ2 pot baseline = also measured in KCNQ2 pot; calls as there; B-score; compound at 10 µM; measured here: initial fluorescence intensity artifact check;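 brightness before thallium and not channel activity; 0 = typical well and far values either way flag optical interference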
Numbers without * were called inactive. An excerpt; count on the stated rates, not on these rows.

SMILES | KCNQ2 pot | KCNQ2 pot baseline
CCOc1ccc(-n2c(=S)sc3c(=O)[nH]c(SCC(=O)NCC4CCCO4)nc32)cc1 (stereo unspecified) | 1.1 | 0.05
Cc1nn2c(SCC(=O)c3cccs3)cc(C(C)(C)C)nc2c1-c1ccccc1 | 20* | -0.4*
COc1ccc(CCNS(=O)(=O)c2ccc(-n3cnnn3)c(OC)c2)cc1OC | 1.2 | -1.4
Cc1cccc(Cn2c(N(C)CCO)nc3c2c(=O)[nH]c(=O)n3C)c1 | 0.11 | 1.4
Cc1cc(NC(=O)Cc2cc(F)cc(F)c2)no1 | 0.18 | 0.96
COc1ccc(CCNC(=O)COC(=O)c2cc(S(=O)(=O)NCc3ccccc3)ccc2O)cc1OC | 0.04 | 1.8
CN1C2CCC1CC(NC(=O)CSc1ccc(C(C)(C)C)cc1)C2 (stereo unspecified) | 1.3 | -0.97
COC(=O)c1c(N)sc2c1CC(C)(C)OC2 | 0.04 | -0.68
COc1cc(C2C(C#N)=C(N)Oc3n[nH]c(-c4ccccn4)c32)cc(OC)c1OC (stereo unspecified) | 0.65 | 0.21
CCOc1ccc(-n2c(SCC(=O)N3CCC(C(=O)O)CC3)nc3ccccc3c2=O)cc1 | 0.43 | 2.3
CCc1nnc(NC(=O)CSc2nnc(-c3ccoc3C)n2CC(C)C)s1 | 1 | 0.35
O=C(Nc1ccc2c(c1)OCO2)C1CC(=O)N(c2ccccc2)C1 (stereo unspecified) | 0.83 | 0.57
COc1ccc(CN(CC2CCC(C(=O)O)CC2)C(=S)Nc2cccc(C)c2)cc1 (stereo unspecified) | 0.44 | 0.07
Cc1cc(NC(=O)COc2ncnc3sc(C)c(C)c23)no1 | 1.2 | 1.9
CCOc1cccc(-c2c(C(=O)N/N=C/c3cccnc3)nnn2-c2nonc2N)c1 | 0.76 | 1.3
O=C(C(=S)N1CCOCC1)c1c[nH]c2ccccc12 | 0.06 | 0.96
Cn1c(=O)c2c(nc(N3CCN(c4ccccn4)CC3)n2Cc2ccccc2Cl)n(C)c1=O | 1.5 | 1.5
Cc1cc(=O)n2nc(-c3ccccc3)sc2c1C#N | 1.9 | 1.2
Cc1ccc(NC(=O)NNC(=O)CN2C(=O)COc3ccccc32)cc1 | 2.1 | 0.02
CN(C)S(=O)(=O)c1ccc(/C(O)=C2/C(=O)C(=O)N(Cc3cccnc3)C2c2ccco2)cc1 (stereo unspecified) | 1.6 | 1.3
O=C(NCCc1ccc(F)cc1)Nc1ccc([N+](=O)[O-])cc1 | 1.4 | 0.02
CCOC(=O)C(NCCc1ccccc1)(NC(C)=O)C(F)(F)F (stereo unspecified) | 0.78 | -0.39
O=C(NCc1ccco1)/C(=C\c1cccc([N+](=O)[O-])c1)NC(=O)c1ccco1 | 0.32 | 0.93
Cc1noc(C)c1COC(=O)CCCNC(=O)c1ccc(Cl)cc1 | 0.01 | 0.9
Cn1c(CCNC(=O)c2ccco2)nc2cc([N+](=O)[O-])ccc21 | 1.8 | -0.22
Cc1ccc(NC(=S)NCc2ccccc2)cc1S(=O)(=O)N1CCCCC1 | 1.2 | -0.59
CCOC(=O)N1CCN(C(=O)CSc2nnc(CNC(=O)c3c(F)cccc3Cl)o2)CC1 | 0.01 | -0.03
CC(C)(C)c1ccc(OCC(O)CN2CCN(C(=O)c3ccccc3)CC2)cc1 (stereo unspecified) | 1.7 | -2
C=CC(n1cncn1)C(O)(c1ccccc1)c1ccccc1 (stereo unspecified) | 0.11 | -1.6
O=C(O)CCCC(=O)OCCCCc1cccs1 | 0.82 | -0.03
CCn1ncc(C2=NOC(C(=O)NCC(C)C)C2)c1C (stereo unspecified) | 0.56 | -0.55
COc1ccc(NC(=O)c2cc3c(=O)n(C)c4ccccc4c3n2C)cc1Cl | 0.5 | -0.17
CCNC(=S)N/N=C/c1cc(Br)cc(Br)c1OC | 0.02 | -0.08
COC(=O)CSc1nnc(COc2ccc([N+](=O)[O-])cc2)n1C | 1.1 | -1.7
CCCN(CCC)c1nc(C)cc(C(C#N)c2nc3ccccc3o2)n1 (stereo unspecified) | 0.8 | 0.02
CCOCCCNC(=O)CN1C(=O)CSc2ccccc21 | 0.59 | -0.21
CCOc1ccc(C(=O)CC(NCc2cccs2)C(=O)O)cc1 (stereo unspecified) | 1.6 | -0.95
CN(C)c1ccc(S(=O)(=O)NCC(=O)NCCOc2ccccc2F)cc1[N+](=O)[O-] | 0.98 | -0.06
COc1ccc(CC(=O)n2nc(-c3ccccc3)nc2NCc2ccco2)cc1 | 0.3 | -1.8
COCC(=O)N(C)c1nnc(-c2cnccn2)s1 | 0.03 | -0.81
O=C1C2C3C=CC(C4CC34)C2C(=O)N1Cc1ccccc1 (stereo unspecified) | 0.25 | -0.13
COc1cccc(C(=O)NC(=O)Nc2cc(C)[nH]n2)c1 | 0.03 | -1.4
CC(=O)NS(=O)(=O)c1ccc(NC(=O)COc2cccc3c2OC(C)(C)C3)cc1 | 0.01 | 0.16
COc1cccc(CN2CCN(C(=O)C3CCC(=O)N(C4CCCC4)C3)CC2)c1 (stereo unspecified) | 1.3 | 0
Cn1c(=O)n(Cc2ccc(Cl)cc2)c2ccccc21 | 0.44 | 0.35
Cc1cc2c(cc1S(=O)(=O)N1CCN(c3cccc(C(F)(F)F)c3)CC1)OCC(=O)N2 | 0.06 | 0.05
CNCc1ccccc1OCC(=O)Nc1ccccc1OC | 1.4 | -0.55
CCCCCCNC(=O)Cc1nc2nc(C)cc(C)n2n1 | 0.15 | -0.6
Nc1c(C(=O)c2ccc(Br)cc2)oc2ccccc12 | 1.5 | -0.06
CC(C)(CNC(=O)c1sc2cc(F)ccc2c1Cl)N1CCOCC1 | 0.02 | 0.03
COc1cccc(-c2nn(-c3ccccc3)cc2/C=C(/NC(=O)c2ccccc2)C(=O)O)c1 | 1.2 | 0.69
O=C(Cn1c(CN2CCCCC2)nc2ccccc2c1=O)NCc1ccco1 | 1.6 | -1.3
CC(C)CN(C(=O)CSc1nncs1)c1c(N)n(CC(C)C)c(=O)[nH]c1=O | 1.6 | -0.07
CCN1C(=O)[C@H]2[C@@H](c3ccc(-c4ccccc4)c(OC)c3)N[C@@](Cc3ccccc3)(C(=O)OC)[C@H]2C1=O | 0.07 | -0.28
COCCn1cc(C(=S)N2CCCCC2)c2ccccc21 | 1.1 | -0.03
COc1cc(-c2nnc(-c3cccnc3)o2)cc(OC)c1OC | 0.64 | 0.49
CCOC(=O)C1CCCN(C/C(O)=C(\C#N)c2nc(-c3ccccc3)cs2)C1 (stereo unspecified) | 0.92 | -0.48
CC(C)NC(=O)COC(=O)c1cc(F)c(F)cc1Cl | 0.2 | 1.3
CC(=O)OCC(=O)Nc1ccc(C(C)=O)cc1 | 0.39 | -1
COc1ccc(CN2C(=O)c3cccnc3C2=O)cc1S(=O)(=O)N(C)c1ccc(C)cc1 | 0.15 | -0.3
Other entries.
SMILES | KCNQ2 pot | KCNQ2 pot baseline
O=C(CN(Cc1ccco1)C(=O)Cn1nnc(-c2ccc(F)cc2)n1)NC1CCCC1 | 0.08 | 0.96
COc1ccc(N2C(=O)CC(NNc3nc4ccccc4s3)C2=O)cc1 (stereo unspecified) | 1.3 | 0.31
CC(C)c1ccc(/C=C(/C#N)c2nnc(NC(=O)c3ccccc3)s2)cc1 | 0.47 | 0.65
FC(F)(F)c1ccccc1-n1c(-c2cnccn2)n[nH]c1=S | 1.2 | 0.41
Cc1ccc2[nH]c(=O)c(CN(Cc3ccco3)C(=O)N3CCOCC3)cc2c1 | 1.1 | -2.5
CCNC(=O)c1cc(Cl)ccc1OC | 0.3 | -1.8
CN(C)S(=O)(=O)c1cccc(NC(=O)c2ccc(OC(F)(F)F)cc2)c1 | 2.5 | 0.91
CCC(CC)C(=O)Nc1cccc(C(=O)NC(C)(C)C)c1 | 0.68 | 2
CC(=O)c1ccc(N2CCCCC2)c(F)c1 | 0.46 | -0.15
O=C(Nc1ccc(S(=O)(=O)N2CCOCC2)cc1)c1ccc(Cl)cc1Cl | 1.6 | 0.26
N/C(=N\OC(=O)CCC1CCCCC1)c1ccccn1 | 1.5 | 0.33
C=CCNC(=O)CSc1nc2ccccc2c(=O)n1CCc1ccc(OC)c(OC)c1 | 0.01 | 3
CS(=O)(=O)N1CCCC(C(=O)NCCCN2CCOCC2)C1 (stereo unspecified) | 0.5 | 0.08
Cc1csc(N/N=C/c2ccccc2F)n1 | 0.6 | 1
O=C(NCCc1nnc2ccc(N3CCCC3)nn12)c1ccccc1 | 2.2 | -0.54
O=C(N1CCN=C1SCc1cccnc1)C12CC3CC(CC(C3)C1)C2 | 0.3 | 0.79
CCOc1ccc(C(=O)NCC(=O)OCc2c(F)cccc2Cl)cc1OCC | 0.55 | 0.01
CCCOc1ccc(/C=C/C(=O)N2CCN(c3ccccn3)CC2)cc1 | 0.33 | 0.23
COc1cc(OC)cc(C(=O)NCC(=O)OCC(=O)N2c3ccccc3NC(=O)C2(C)C)c1 | 0.5 | 0.03
CCCCN(C(=O)c1oc2ccc(OCC)cc2c1C)c1c(N)n(CC(C)C)c(=O)[nH]c1=O | 0.69 | -0.01
CCC(C)[C@H](NC(=O)N1CC(=O)Nc2ccccc21)C(=O)N[C@H](Cc1ccccc1)C(=O)O (stereo partly specified) | 0.88 | -0.15
C/C(=N\NC(=O)c1ccoc1C)c1ccccc1 | 3 | -1
COc1ccc(CCNC(=O)c2cc3ccccc3oc2=O)cc1 | 0.19 | -0.91
COc1ccc(C2N(c3ccccc3)C(=S)N3CCCN23)cc1 (stereo unspecified) | 1.8 | -1.1
COc1cccc(NC(=O)CNCc2ccccc2)c1 | 1.2 | 1.5
CSc1cccc(NC(=O)c2ccc(NC3=NC4CS(=O)(=O)CC4S3)cc2)c1 (stereo unspecified) | 0.5 | -1.6
CCn1cc(C(=O)NCc2ccccn2)c(=O)c2cc(S(=O)(=O)N3CCCCC3)ccc21 | 0.25 | -0.26
CCCc1nc(SCC(=O)N2CCCCCC2)c2c(=O)n(C)c(=O)n(C)c2n1 | 19* | -1.5*
CNC(=O)N(O)C1N(/N=C/c2ccc(C)cc2)C(=S)SC1(C)C (stereo unspecified) | 0.8 | -1.6
O=C(CSc1nnc(NC(=O)c2ccccc2[N+](=O)[O-])s1)NCC1CCCO1 (stereo unspecified) | 1.2 | -0.11
CCCCSC(=O)Nc1ccccc1 | 3.1 | -0.11
COc1ccc(C)cc1NC(=O)c1ccc2c(=O)n3c(nc2c1)CCCCC3 | 0.25 | -0.28
CCc1nnc(SCC(=O)Nc2ccc3c(c2)OCO3)n1CC | 0.22 | -0.06
C#Cc1ccc([C@@H]2C=C(C(=O)NC3CC3)O[C@H](OCC)[C@H]2CCCO)cc1 | 0.87 | 0.03
O=C(OCC(=O)N1CCCC1)c1ccco1 | 1.2 | -0.55
O=C(NCC(=O)N(c1ccccc1)C(C(=O)NC1CCCCC1)c1cccnc1)c1cccs1 (stereo unspecified) | 0.87 | 0.14
COc1ccccc1NS(=O)(=O)c1cccc(C(=O)N/N=C(\C)c2ccc(-n3ccnc3)cc2)c1 | 0.25 | -1.1
C=CCNC(=S)Nc1ccc2cn[nH]c2c1 | 1.2 | -0.63
COc1cccc(OCC(O)CN2CCN(CCO)CC2)c1 (stereo unspecified) | 0.46 | 0.1
Cc1cccc(NC(=O)CN(C)S(=O)(=O)c2cccs2)c1 | 0.66 | -2.1
COC(=O)C1=C(C)NC(=O)NC1c1cc(Cl)ccc1OC (stereo unspecified) | 0.21 | -0.22
O=C(NCc1ccccc1)C1CCCN1S(=O)(=O)c1ccc(F)cc1 (stereo unspecified) | 0.67 | -0.34
CCN1CCN(Cc2ccc(NC(=O)c3ccc(C)c(NC(=O)C[C@@H]4NC(=O)[C@H](Cc5ccccc5)NC4=O)c3)cc2C(F)(F)F)CC1 | 1.1 | -2
Cc1ccc(C(=O)NNC(=O)CCN2C(=O)C3CCCCC3C2=O)cc1 (stereo unspecified) | 0.06 | -1.5
COc1cc2cc(CN(Cc3cccs3)C(=S)Nc3cccc(C)c3)c(=O)[nH]c2cc1OC | 0.89 | -2.5
O=C(O)c1ccc(CN(Cc2ccccc2)S(=O)(=O)c2ccc(Cl)cc2)cc1 | 0.01 | 1.1

Reprinted from the listing for reference:
SMILES | KCNQ2 pot | KCNQ2 pot baseline
CCCCSC(=O)Nc1ccccc1 | 3.1 | -0.11
COc1ccc(C)cc1NC(=O)c1ccc2c(=O)n3c(nc2c1)CCCCC3 | 0.25 | -0.28
CCc1nnc(SCC(=O)Nc2ccc3c(c2)OCO3)n1CC | 0.22 | -0.06
C#Cc1ccc([C@@H]2C=C(C(=O)NC3CC3)O[C@H](OCC)[C@H]2CCCO)cc1 | 0.87 | 0.03
O=C(OCC(=O)N1CCCC1)c1ccco1 | 1.2 | -0.55
O=C(NCC(=O)N(c1ccccc1)C(C(=O)NC1CCCCC1)c1cccnc1)c1cccs1 (stereo unspecified) | 0.87 | 0.14
COc1ccccc1NS(=O)(=O)c1cccc(C(=O)N/N=C(\C)c2ccc(-n3ccnc3)cc2)c1 | 0.25 | -1.1
C=CCNC(=S)Nc1ccc2cn[nH]c2c1 | 1.2 | -0.63
COc1cccc(OCC(O)CN2CCN(CCO)CC2)c1 (stereo unspecified) | 0.46 | 0.1
Cc1cccc(NC(=O)CN(C)S(=O)(=O)c2cccs2)c1 | 0.66 | -2.1
COC(=O)C1=C(C)NC(=O)NC1c1cc(Cl)ccc1OC (stereo unspecified) | 0.21 | -0.22
O=C(NCc1ccccc1)C1CCCN1S(=O)(=O)c1ccc(F)cc1 (stereo unspecified) | 0.67 | -0.34
CCN1CCN(Cc2ccc(NC(=O)c3ccc(C)c(NC(=O)C[C@@H]4NC(=O)[C@H](Cc5ccccc5)NC4=O)c3)cc2C(F)(F)F)CC1 | 1.1 | -2
Cc1ccc(C(=O)NNC(=O)CCN2C(=O)C3CCCCC3C2=O)cc1 (stereo unspecified) | 0.06 | -1.5
COc1cc2cc(CN(Cc3cccs3)C(=S)Nc3cccc(C)c3)c(=O)[nH]c2cc1OC | 0.89 | -2.5
